From PubChem BioAssay
Marburg entry inh – Marburg virus entry inhibition; Marburg virus pseudotyped entry inhibition, cell reporter; control for the full effect not named in the record; about a third of the inactives were read at about 46 µM; Potency, µM (titrated, usually from 37.8 µM), for the others: at the top dose activity change, negative = inhibition, most hits filed as inhibitors; 300,000 compounds, 1.8% hits; active = well fitted inhibition curve with a large enough effect; inconclusive = small, poorly fitted or top-dose-only effect, or effect the other way; inactive = flat fitted curve, though single readings scatter; tested in HEK293 cells; about a fifth of its hits are not listed in these tables; also: % is scaled to controls: 0 for no effect and ±100 for the full control effect; luciferase read-out
LASV entry inh – Lassa virus entry inhibition; AID 540256; Potency, µM (series often up to 37.9 µM), inactives show at the top dose activity change, negative = inhibition, usual class: inhibitors; Lassa virus pseudotype entry inhibition, cell reporter; control for the full effect not named in the record; 300,000 compounds, 1.2% hits; active means well fitted inhibition curve with a large enough effect; inconclusive means small, poorly fitted or top-dose-only effect, or effect the other way; inactive means flat fitted curve, though single readings scatter; tested in HEK293 cells; also: % is scaled to controls: 0 for no effect and ±100 for the full control effect; nearly all actives have a fitted effect of over 50% in size; luciferase read-out
Cruzain Triton – inhibitors of Trypanosoma cruzi cruzain with detergent. P25779. purified cruzain, Z-FR-AMC fluorescence, 0.01% Triton. Potency, µM, for the others: max response, negative = inhibition, hits mostly inhibitors. 200,000 compounds, 0.43% hits. AID 1478;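 also: plate controls were neutral wells for no effect and buffer without enzyme for full effect; nearly all actives have a fitted effect of over 40% in size; top concentration of the series not given in the record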
Target sequence (P25779 123-467 limits assumed): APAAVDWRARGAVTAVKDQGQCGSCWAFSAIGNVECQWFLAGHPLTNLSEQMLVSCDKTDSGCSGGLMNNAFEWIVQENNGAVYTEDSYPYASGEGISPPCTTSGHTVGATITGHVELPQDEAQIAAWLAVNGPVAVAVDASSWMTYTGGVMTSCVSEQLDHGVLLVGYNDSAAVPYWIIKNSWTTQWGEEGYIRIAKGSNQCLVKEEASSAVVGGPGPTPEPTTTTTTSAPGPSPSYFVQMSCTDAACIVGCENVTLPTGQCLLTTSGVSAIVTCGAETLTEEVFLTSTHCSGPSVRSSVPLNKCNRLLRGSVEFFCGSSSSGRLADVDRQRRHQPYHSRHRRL
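Steps: dispense cruzain (1.5 nM final) in acetate buffer pH 5.5 with DTT and 0.01% Triton X-100; pin-transfer compounds; incubate 15 min RT; add Z-FR-AMC (2 uM final); read fluorescence every 30 s, using the 60 s intensity change.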
StopGo reporter – FMDV 2A StopGo reporter, luciferase signal. human cells with a luciferase reporter of 2A StopGo recoding; control for the full effect not named in the record. Potency, µM (titrated, usually from 57.9 µM), inactives show top-dose signal change, negative = less light. 410,000 compounds, 1.2% hits; active = well fitted falling curve with a large enough effect; inconclusive = small, poorly fitted or top-dose-only effect; inactive = no such curve, though single readings can be large or run the other way; tested in HEK293T cells; also: % is scaled to controls: 0 for no effect and ±100 for the full control effect; nearly all actives have a fitted effect of over 45% in size; luciferase light after 4 h
RE007 growth inh – less growth of the S. pombe RE007 Vpr strain. S. pombe RE007 Vpr strain, BacTiter-Glo ATP luminescence, 24 h; control for the full effect not named in the record. Potency, µM (doses to about 92.2 µM), for inactives: at the top dose activity change, negative = less growth. 360,000 compounds, 0.21% hits. AID 651644; active = well fitted falling curve with a large enough effect; inconclusive = small, poorly fitted or top-dose-only effect; inactive = no such curve, though single readings can be large or run the other way;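 also: % is scaled to controls: 0 for no effect and ±100 for the full control effect; nearly all actives have a fitted effect of over 50% in size; the assay follows cell death caused by Vpr and the record does not say whether a fall means rescue or toxicity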
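Fission yeast strain RE007, carrying one chromosomally integrated HIV-1 vpr copy, was seeded at OD 0.01 in PMG+AL medium with 23 nL pinned compound. After 24 h at 30 °C and 99% humidity, viability was read by BacTiter-Glo luminescence.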
Cruzain inh noDet – inhibitors of Trypanosoma cruzi cruzain without detergent. P25779. AID 1476. 200,000 compounds, 2.3% hits. Potency, µM, for the others: max response, negative = inhibition, actives largely listed as inhibitors. purified cruzain, Z-FR-AMC fluorescence, no detergent;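 also: plate controls were enzyme without inhibitor for no effect and buffer without enzyme for full effect; nearly all actives have a fitted effect of over 40% in size; top concentration of the series not given in the record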
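Purified cruzain at 1.5 nM, pre-incubated 15 min with compound at room temperature in 100 mM sodium acetate pH 5.5, 5 mM DTT, 0.00005% Triton X-100. Reaction started with 2 uM Z-FR-AMC; AMC fluorescence increase over 60 s gives rate.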
SARS PLpro yeast – inhibitors of SARS-CoV papain-like protease in yeast; Potency, µM (series often up to 32.9 µM), for the others: at the highest dose activity, positive = growth rescue; 330,000 compounds, 0.19% hits; AID 485353; S. cerevisiae expressing SARS-CoV PLpro, growth rescue; control for the full effect not named in the record; active means well fitted rising curve with a large enough effect; inconclusive means small, poorly fitted or top-dose-only effect; inactive means no such curve, though single readings can be large or run the other way; also: 0% is about no effect; nearly all actives have a fitted effect of over 55% in size; growth read by luminescence after 48 h
NS1 inh – influenza NS1 inhibition; Potency, µM (series often up to 46.1 µM), for the others: top-dose activity, positive = more growth; 270,000 compounds, 0.4% hits; S. cerevisiae slowed by influenza A NS1, growth recovery by OD600; AID 2326; active means well fitted rising curve with a large enough effect; inconclusive means small, poorly fitted or top-dose-only effect; inactive means no such curve, though single readings can be large or run the other way; also: nearly all actives have a fitted effect of over 50% in size
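Growth recovery, yeast-based: influenza A NS1 expressed in S. cerevisiae causes slow growth, and suppressors are detected by OD600. The parent strain without NS1 is used as positive control.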
An asterisk follows results filed as active; ? = inconclusive; nt = no result given; & = joins results of further samples; [ ] = remark or other dose. Unless noted, calls follow the shape of the dose curve; as a rule, active = well fitted curve in the direction sought with a large enough effect; inconclusive = small, poorly fitted or top-dose-only effect, or another doubt; inactive = no such curve, though single readings can be large; an effect the other way counts as inactive or inconclusive. Potency is read from the fitted curve at half-maximal effect.

SMILES	Marburg entry inh	LASV entry inh	Cruzain Triton	StopGo reporter	RE007 growth inh	Cruzain inh noDet	SARS PLpro yeast	NS1 inh
Cc1ccc(-c2cccc([C@H]3[C@@H]4C=CC[C@@H](C)[C@@H]4C(=O)N3Cc3ccccc3)c2)cc1	nt	nt	-1.1%	0%	3%	?	-26%	nt
C[C@H](NC(=O)c1nc[nH]c1C(=O)N[C@H](C)c1ccccc1)C(=O)OCc1ccccc1	0%	nt	nt	-18%	2%	nt	-4%	2%
Cn1c(=O)cc(SCC(=O)NCCN2CCN(c3ccccc3F)CC2)c2cc(Cl)ccc21	0%&-2%	-9%	3.1%	-27%	-13%	-6%	-3%	-46%
COc1ccc(OCc2nn3c(Cn4cnc5ccccc54)nnc3s2)cc1	?	-24%	-3.3%	?	0%	-14%	-7%	-58%
O=C(CCc1nnc(Cc2c[nH]c3ccccc23)o1)NC1CCCC1	12%[46.1 µM]	13%	nt	-3%	5%	nt	0%	0%
COc1cccc(CN2CCN(Cc3ccc4c(c3)OCCO4)CC2CCO)c1 (stereo not drawn)	nt	nt	nt	-11%	-3%	nt	1%	3%
Cc1ccc(CCNC(=O)c2cc3ccccn3n2)cc1	nt	-29%[46.1 µM]	-2.3%	9%	nt	-8%	nt	nt
O=C(Nc1ccc(-c2nnco2)cc1)c1ccccc1	1%	22%	-0.3%	34%[activator]	-13%	0%	-4%	-5%
Cc1c(CC(=O)NCCCC(=O)O)c(=O)oc2cc3c(cc12)CCC(C)(C)O3	?	nt	nt	6.3µM*	-8%	nt	1%	3%
O=C(CC(=O)Nc1cc(Cl)ccc1Cl)Nc1cc(Cl)ccc1Cl	nt	nt	nt	-17%	11%	nt	0%	9%
O=C(CCN1C(=O)COc2ccccc21)NCCCN1CCCC1	nt	nt	nt	-19%	0%	nt	2%	6%
CCOc1ccc(-n2c(O)c(/C=N/Nc3nc(C)cc(C)n3)c3ccccc3c2=O)cc1	?	-24%	nt	-15%	-14%	nt	1%	nt
CCc1nnc2n1N=C(c1ccc(Cl)cc1Cl)CS2	-17%[46.1 µM]	1%	nt	16%	17%	nt	-26%	-3%
O=C(CSc1nnc(-c2ccc(Cl)cc2Cl)n1C1CCCCC1)NC1CCS(=O)(=O)C1 (stereo not drawn)	0%	-18%	-1.1%	nt	14%	?	3%	8%
CCn1c(CNc2ccc(F)cc2)nnc1SCCN1CCCCC1	?	-2%	-0.6%	0%	?	-1%	-1%	-2%
CCOc1ccc(NC(=O)CCC(=O)NNC(=O)c2ccco2)cc1	?	17%	nt	10%	6%	nt	4%	9%
O=C(NCCCn1ccnc1)c1cc2ccccc2oc1=O	0%	-6%	-1.5%	7%	7%	-16%	-8%	3%
OCCc1c[nH]c2cc(F)ccc12	nt	nt	nt	-7%	-11%	nt	-3%	1%
COc1ccc2c(CC(=O)OCc3nc4ccsc4c(=O)[nH]3)coc2c1	12%	0%	nt	3%	-18%	nt	4%	nt
COc1ccc(N2CC(NC(=O)c3ccco3)CC2=O)cc1 (stereo not drawn)	nt	-4%[46.1 µM]	1.8%	-11%	nt	-11%	nt	nt
Clc1nn2cnnc2c2ccccc12	nt	nt	nt	-2%	8%	nt	1%	2%
COCCn1c(SCC(=O)NCc2ccc3c(c2)OCO3)nc2ccccc2c1=O	?	1%[46.1 µM]	nt	-12%	13%	nt	1%	nt
COc1ccccc1CNC(=O)COC(=O)/C=C/c1ccc2c(c1)OCO2	?	-8%	nt	49%[activator]	-13%	nt	4%	nt
Cc1c(C(=O)N2CCCC2)sc(NC(=O)c2cccs2)c1C#N	-23%	-4%	-5.1%	nt	-17%	-3%	3%	-20%
CC(NC(=S)Nc1ccc(Cl)cc1)C(c1ccccc1)N1CCOCC1 (stereo not drawn)	-43%	-4%	1.4%	51%[activator]	5%	-3%	14%	-33%
CCn1nc(NC(=O)C(C)C)c2cc3cccc(C)c3nc21	nt	nt	nt	-21%	-6%	nt	-1%	4%
CCOc1ccc(C(=O)c2cn(CC(=O)Nc3ccc(C)c(Cl)c3)c3ccc(OCC)cc3c2=O)cc1	9%[46.1 µM]	-5%[46.1 µM]	-1.3%	0%	nt	-9%	nt	nt
N=c1c(C(=O)NCc2ccco2)cc2c(=O)n3ccccc3nc2n1C1CCCC1	?	-25%	nt	0%	-16%	nt	-2%	4%
CCN(CC(=O)NCc1ccncc1)S(=O)(=O)c1cc(Cl)ccc1Cl	9%[46.1 µM]	3%	nt	-3%	-16%	nt	21%	3%
Cc1ccc(CNc2nc3ccc(C)cc3n3cnnc23)cc1	nt	nt	1.8%	-5%	0%	?	-4%	-2%
Cc1c(C(=O)NC(=S)NCc2cccnc2)cccc1[N+](=O)[O-]	2%	-15%	nt	?	1%	nt	0%	-5%
Cc1ccc(S(=O)(=O)Nc2nc(C)c(C(=O)NNS(=O)(=O)c3cc(C)ccc3C)s2)cc1	-13%[46.1 µM]	5%[46.1 µM]	nt	2%	-8%	nt	0%	20%
COC(=O)c1ccc(NS(=O)(=O)c2ccc(-n3cccn3)cc2)cc1	nt	-5%[46.1 µM]	-8.9%	41%[activator]	nt	-8%	nt	nt
Cc1ccc(C(C)C)c2c1C(c1ccc3c(c1)OCO3)CC(=O)O2 (stereo not drawn)	nt	nt	1.8%	0%	-12%	-14%	-36%	nt
CC(=O)Nc1ccc(S(=O)(=O)N2CCN(S(=O)(=O)c3ccc(NC(C)=O)cc3)CC2)cc1	10%[46.1 µM]	1%[46.1 µM]	nt	-17%	1%	nt	1%	0%
COc1cccc(N2CCN(C(=O)c3cnn(-c4ccc(C)cc4C)c3C3CCN(C(=O)OC(C)(C)C)CC3)CC2)c1	nt	1.1µM*	-7.4%	?	nt	?	nt	nt
CN(C)N=Nc1ccc(S(N)(=O)=O)cc1	2%[46.1 µM]	15%[46.1 µM]	nt	-9%	-18%	nt	1%	3%
CCNc1nc(Sc2ccc(C)cc2)cc(C(F)(F)F)n1	?	-11%	-5.2%	-6%	10%	-5%	-6%	-29%
OCCc1c[nH]c2ccc(C(F)(F)F)cc12	nt	nt	nt	-14%	-12%	nt	-13%	-12%
O=C(CSc1cn(CC(=O)N2CCCCC2)c2ccccc12)NCc1ccccc1	nt	6%[46.1 µM]	-2.1%	20%	nt	6%	nt	nt
CCc1nnc(NC(=O)c2cc3ccccc3oc2=O)s1	-8%	6%	-3.4%	39%[activator]	?	?	-3%	-12%
Cc1ccc(S(=O)(=O)CCC(=O)OC(C)c2nnc(-c3cccs3)o2)cc1 (stereo not drawn)	-15%	0%	nt	-4%	42%	nt	0%	nt
Cc1ccc2c(C(=O)CN3CCCC3)c(C)[nH]c2c1	16%	24%	0.8%	0%	33%	-7%	13%	0%
CCCCN(C(=O)CSc1cc(C)c2ccc(OC)cc2n1)c1c(N)n(Cc2ccccc2)c(=O)[nH]c1=O	1%	-11%	-4.6%	-8%	3%	-2%	-4%	?
CCC(=O)N1CCN(c2ccccc2NC(=O)c2ccc([N+](=O)[O-])o2)CC1	?	-10%	nt	-9%	-5%	nt	-21%	2%
CCN(CC)C(=O)Cn1cc(C(=O)C(=O)N2CCN(c3ccc(OC)cc3)CC2)c2ccccc21	nt	nt	nt	16%	2%	nt	1%	-2%
O=C(O)C1CCCCC1C(=O)NCCCCc1ccccc1 (stereo not drawn)	28%	7%	4.4%	-25%	2%	-1%	7%	6%
CC(C)(C)NC(=O)CSc1nnc(C2CC2)n1-c1ccccc1	-14%[46.1 µM]	11%	nt	5%	-10%	nt	0%	nt
COc1ccccc1C(=O)NCCC(=O)NCC1CCCCC1	1%	-35%	nt	7%	-7%	nt	-22%	nt
COC(=O)c1ccccc1Sc1c(/C=N/OCc2ccc(Cl)cc2)c(C(F)(F)F)nn1C	?	?	0.6%	?	30%	?	7%	8%
CCc1c(C)nc(N2CCOCC2)[nH]c1=O	17%	-7%	4.4%	5%	9%	0%	2%	0%
CCOc1ccccc1NC(=O)COC(=O)C1CCC(=O)N1 (stereo not drawn)	-4%[46.1 µM]	19%[46.1 µM]	nt	0%	12%	nt	-3%	nt
COc1ccccc1N(C(=O)c1ccco1)C(C(=O)NC1CCCC1)c1ccncc1 (stereo not drawn)	-15%[46.1 µM]	9%	nt	-20%	-8%	nt	1%	3%
O=C(Nc1ccccc1)N1CCN(CCc2ccccc2)CC1	-11%[46.1 µM]	?	nt	15%	-12%	nt	1%	-2%
O=c1c2cc(NC(=S)NC3CC3)ccc2nc2n1CCCCC2	-9%[46.1 µM]	-26%	nt	4%	-4%	nt	-1%	nt
Cc1ccc(-c2ccc(C#N)c(=O)n2CC(=O)N(C)C)cc1	-7%	-29%	nt	-2%	-15%	nt	7%	12%
COc1cccc(CN(C)CC(O)COc2cc(Cl)ccc2Cl)c1 (stereo not drawn)	nt	nt	nt	-28%	3%	nt	-1%	-1%
Cc1cc(C)c(O)c(-c2cc(C(=O)Nc3c(C)n(C)n(-c4ccccc4)c3=O)[nH]n2)c1	nt	nt	nt	-15%	6%	nt	-1%	-3%
O=C(N/N=C/c1cccnc1)c1cc(-c2ccccc2Cl)nc2ccccc12	-28%	-2%	nt	-19%	23%	nt	13%	-37%
Cc1cc(C)nc(SCSc2nc(C)cc(C)n2)n1	4%	8%	-1.0%	-5%	-9%	10%	15%	-23%
Next structures:
SMILES	Marburg entry inh	LASV entry inh	Cruzain Triton	StopGo reporter	RE007 growth inh	Cruzain inh noDet	SARS PLpro yeast	NS1 inh
CCCCCn1c(=O)c(-c2nc3ccccc3[nH]2)c(O)c2ccccc21	2%[46.1 µM]	11%[46.1 µM]	nt	7%	1%	nt	0%	5%
Cc1ccc(-c2c[n+](CC(=O)Nc3c(C)cccc3C)c3n2CCC3)cc1	nt	nt	nt	-18%	-17%	nt	-1%	-4%
CC(C)Cc1nnc(NC(=O)CN2C(=O)NC3(CCCC3)C2=O)s1	-9%	-15%	nt	-22%	-18%	nt	-5%	nt
CCN(CC)C(=O)c1[nH]cnc1C(=O)NCC(=O)OC(C)(C)C	nt	nt	nt	11%	24%	nt	1%	-11%
COc1cccc(-c2nc(SCC(=O)Nc3ccc4c(c3)OCO4)c(-c3ccccc3)[nH]2)c1	-30%[46.1 µM]	?	-3.4%	-12%	nt	?	nt	nt
